StopGo RLuc: lowers the Renilla signal of an FMDV 2A StopGo reporter | HEK cells with a luciferase reporter of 2A StopGo recoding | Potency, µM (top dose mostly 57.5 µM), inactives show at the top dose signal change, negative = less light | 0.32% of 120,000 active; active means well fitted falling curve with a large enough effect; inconclusive means small, poorly fitted or top-dose-only effect; inactive means no such curve, though single readings can be large or run the other way; further: nearly all actives have a fitted effect of over 55% in size; overnight with compound
2A firefly: FMDV 2A StopGo reporter, firefly signal. Potency, µM (titrated, usually from 57.5 µM), inactives show top-dose signal change, negative = less light. AID 1745856. 0.23% of 120,000 active. HEK cells with a luciferase reporter of 2A StopGo recoding; active = well fitted falling curve with a large enough effect; inconclusive = small, poorly fitted or top-dose-only effect; inactive = no such curve, though single readings can be large or run the other way; further: nearly all actives have a fitted effect of over 60% in size; overnight with compound
* = called active by the depositor; ? = inconclusive; & = joins results of further samples; [ ] = dose if it differs, or a comment. On the % scale 0 is the no-effect control and ±100 the full control effect; potency means the concentration at half of the fitted maximal effect. This is a subset; rates above refer to the full screens.

SMILES	StopGo RLuc	2A firefly
C=C(C)C1CCC(C)=C1CC/C(C)=N/NC(N)=O (centres undefined)	-1%	14%
CCn1cc(C2N3CC4(CC)CN2CC(CC)(C3)C4=O)c2ccccc21 (centres undefined)	7%&-9%	1%&-7%
Fc1ccccc1NCc1nnc2n1CCCCC2	0%	2%
CCOC(=O)C(NC(=O)COc1c(C)cc(C)cc1C)C(=O)OCC	-5%	5%
Cc1ccc(C)c(N2CCN(C(=O)c3noc4c3CCCCC4)CC2)c1	17%	1%
Cn1c(C(=O)NCc2cccc(F)c2)cc2cc(S(=O)(=O)N3CCCCC3)ccc21	5%	-33%
Fc1ccc(COc2ccc(-c3nnco3)cc2)c(Br)c1	15%	0%
Cc1cc(NS(=O)(=O)c2ccc(NC(=O)c3ccccc3F)cc2)nc(C)n1	35%[activator]	-6%
O=Cc1cc(O)ccc1Br	0%	22%
O=C(CCc1ccsc1)Nc1cccc(N2CCCC2=O)c1	9%	118%[activator]
COc1ccc(NC(=O)c2c(NC(=O)c3cccc(C)c3)sc3c2CCCC3)cc1	-10%	0%
Cc1csc(CNC(=O)c2ccc(C(N)=O)cc2)n1	7%	-2%
CC(C)(C(=O)O)c1ccc(C(O)CCCN2CCC(C(O)(c3ccccc3)c3ccccc3)CC2)cc1 (centres undefined)	-10%	-19%
Cn1c(=O)c2c(-c3cccc(Br)c3)[nH]cc2n(C)c1=O	6%	0%
CCCCc1ccc(NC(=O)C2CC3CCC2C3)cc1 (centres undefined)	30%[activator]	167%[activator]
COc1ccc(-n2cnc3cc(C(=O)N4CCSCC4)ccc3c2=O)cc1Cl	10%	10%
Cc1ccc(C(C(=O)NC2CCCCC2)N(C)c2ccccc2)cc1 (centres undefined)	20%	22%
CC(C)c1nc(SCC(=O)c2c[nH]c3ccccc23)n[nH]1	-9%	33%[activator]
O=C(CN1CCN(C(=O)Cc2c[nH]c3ccccc23)CC1)NC1CC1	-6%	-10%
COc1ccc(-c2ccc(CNCCCSc3nnnn3C)o2)cc1Cl	-2%	-6%
COc1ccccc1-c1nc2c(c(SCc3cccc(Cl)c3)n1)Cc1c(CO)cnc(C)c1O2	-2%	?
CCOc1ccc(C(=O)Nc2nonc2-c2ccccc2)cc1	-2%	6%
COc1ccc(CCNC(=O)Cn2cc(C(=O)c3ccc(F)cc3)c(=O)c3ccc(C)nc32)cc1OC	9%	29%
O=C(O)/C=C/c1ccc2c(c1)OCCCO2	-6%	0%
CCOC(=O)c1ccc(NC2=CC(c3ccc(O)c(OCC)c3)N(c3ccc(C(=O)OCC)cc3)C2=O)cc1 (centres undefined)	-1%	3%
CCCCn1c(SCC(=O)c2ccc(Cl)cc2)nc2c1c(=O)[nH]c(=O)n2C	-8%	-3%
CCc1ccc(S(=O)(=O)c2nnn3c2nc(N2CCCC(C)C2)c2cc(Cl)ccc23)cc1 (centres undefined)	-5%	-6%
CCN(CC)CCNC(=O)CN1C(=O)COc2ccc(S(=O)(=O)N3CCOCC3)cc21	-6%	?
Cc1ccc(NC(=O)C2=CCN(Cc3ccccc3F)CC2)cc1	2%	80%[activator]
CNS(=O)(=O)c1ccc(C(=O)NCC(=O)O)cc1	3%	-5%
COc1ccc(C(=O)Nc2ccc(CCc3nc4ccc(C)cc4[nH]3)cc2)c(OC)c1	?	-5%
Cc1ccc2nc(C)cc(C(=O)NCc3ccc4c(c3)OCO4)c2c1	13%	0%
Cc1ccc(C(=O)O)c(Cl)n1	0%	-13%
CC(=O)c1cc(-c2ccccc2)n(CCC(=O)NC(C)c2ccccc2)c1C (centres undefined)	34%[activator]	7%
O=C(CN1CCN(c2nc(C(F)(F)F)nc3ccccc23)CC1)N1CCCC1	-9%	0%
Cc1cc(OCC(=O)NCCCN2CCOCC2)c2c(C)c(C)c(=O)oc2c1	14%	17%
CC1=C(C(=O)Nc2ccccc2)C(c2ccc(Br)cc2)N2C(=O)CSC2=N1 (centres undefined)	-5%	-10%
CCOC(=O)C1CCCN(S(=O)(=O)c2cc(-c3cc(C)no3)ccc2C)C1 (centres undefined)	21%	2%
O=C(NCCc1ccc(Cl)cc1)c1ccc(CS(=O)(=O)Cc2ccccc2F)o1	?	?
CC1=C(C)CC(C(=O)N2CCN(Cc3ccc(C)cc3)CC2)C(C(=O)O)C1 (centres undefined)	4%	20%
Cc1ccccc1CN1C(=O)c2ccccc2Sc2ccc(C(=O)NC(C)c3ccccc3)cc21 (centres undefined)	1%	-13%
CC(=O)Nc1ccc2nc(-c3ccccc3)oc2c1	18%	180%[activator]
Cn1cc(C(=O)N2CCN(S(=O)(=O)c3ccc(F)cc3F)CC2)c2ccccc21	-2%	-23%
Cc1ccc2c(c1)N(C(=O)C1CCN(S(=O)(=O)c3c(C)noc3/C=C/c3ccccc3F)CC1)CCO2	-8%	-20%
CCC(C)n1c(=N)c(C(=O)NC2CCCC2)cc2c(=O)n3ccccc3nc21 (centres undefined)	-7%	-6%
COCCCOc1ccnc(CS(=O)c2nc3ccccc3[nH]2)c1C (centres undefined)	-5%	-10%[11.5 µM]
Cc1ccc(OCC(=O)Nc2ccccc2OCc2cc(=O)n3ccccc3n2)cc1C	-2%	-3%
CCc1ccccc1NC(=O)C(OC(=O)c1ccccc1)C(OC(=O)c1ccccc1)C(=O)O (centres undefined)	-28%	-8%
CONC(=O)CC1Sc2ccc(Cl)cc2NC1=O (centres undefined)	2%[1.06 µM]	-29%
COC(=O)c1cccnc1-n1c(=O)c2cccnc2n(CC(=O)Nc2ccccc2F)c1=O	-11%	3%
The results go on.
SMILES	StopGo RLuc	2A firefly
CNC(=O)c1ccc(NC(=O)c2ccc3c(c2)NC(=O)CS3)cc1	8%	12%
CC(C)NC(=O)C(C)Sc1ncc(-c2ccc(F)cc2)o1 (centres undefined)	-10%	65%[activator]
CCc1ccc(CN(Cc2ccco2)C(=O)COc2ccc(Cl)cc2C)cc1	-5%	-14%
Cc1ccc(-n2c(/C=C/c3cccc4ccccc34)nc3ccccc3c2=O)cc1	18%	-24%
CC(NC(=O)CSc1nnc(COc2ccc(Cl)cc2)n1C)c1ccc(F)cc1 (centres undefined)	20%	-9%
Cc1nc2cccnc2n1C1CCN(C(=O)Nc2ccccc2C(F)(F)F)CC1	-7%	32%[activator]
O=c1c2ccccc2nnn1CSc1nnnn1-c1cccc(Cl)c1	12%	0%
Cc1cc(C)nc(NC(=O)Nc2ccc(C)c(F)c2)c1	0%	200%[activator]
Cc1nc2nncn2c(N2CCN(c3ccccc3)CC2)c1C	-23%	0%
Cc1nn(CC(=O)NCc2ccccc2Cl)c(=O)c2cccn12	6%	25%
Cc1cccn2c(=O)c(C(=O)NCCc3ccc(S(N)(=O)=O)cc3)c(O)nc12	-7%	-16%
COc1ccc(-c2ocnc2C(=O)Nc2cc(C)ccc2C)cc1	10%	0%
c1ccc(-c2ccc(C(c3ccccc3)n3ccnc3)cc2)cc1 (centres undefined)	?	6%[11.5 µM]
CC(C)(C)c1ccc(-c2nc(C#N)c(N3CCOCC3)o2)cc1	5%	53%[activator]
Cc1ccccc1OCCSC(C)C(=O)NC(C)(C)C (centres undefined)	8%	13%
COc1ccc(CNC(=O)COc2ncnc3c(Cl)cc(Cl)cc23)cc1	-6%	-1%
O=C(NCc1ccc(Cl)cc1Cl)C1CCN(c2ncnc3nc[nH]c23)CC1	-2%	4%
CC(C)=CC(=O)NC(c1cccs1)C1CCCC1 (centres undefined)	3%	3%
Brc1ccc(-c2noc(-c3ccccn3)n2)o1	9%	33%[activator]
CCn1nc(C(=O)N2CCC(C(N)=O)CC2)c2ccccc2c1=O	19%	13%

In a second layout: results already given.
structure | StopGo RLuc | 2A firefly
COc1ccc(CNC(=O)COc2ncnc3c(Cl)cc(Cl)cc23)cc1 | -6% | -1%
O=C(NCc1ccc(Cl)cc1Cl)C1CCN(c2ncnc3nc[nH]c23)CC1 | -2% | 4%
CC(C)=CC(=O)NC(c1cccs1)C1CCCC1 (centres undefined) | 3% | 3%
Brc1ccc(-c2noc(-c3ccccn3)n2)o1 | 9% | 33%[activator]
CCn1nc(C(=O)N2CCC(C(N)=O)CC2)c2ccccc2c1=O | 19% | 13%

Additional records:
SMILES	StopGo RLuc	2A firefly
CCOc1ccccc1C(=O)Nc1cc(-c2nc3cccnc3s2)ccc1C	0%	-16%
COc1ccc(S(=O)(=O)N2CCN(Cc3ncc(-c4ccc(F)cc4)o3)CC2)cc1OC	-20%	1%
CC(=O)c1ccc(NC(=O)C(C)Nc2ccc3oc(C)nc3c2)cc1 (centres undefined)	11%	39%[activator]
Cc1cc(C)cc(NC(=O)C2CCCN2S(=O)(=O)c2ccc3nc(-c4ccccc4)[nH]c3c2)c1 (centres undefined)	-12%	-24%
O=C(Nc1ccccc1)Nc1cc(S(=O)(=O)N2CCOCC2)ccc1NCC1CCCO1 (centres undefined)	1%	-3%
COc1cc(OC)c(NC(=O)C(c2ccccc2)N2Cc3ccccc3C2=O)cc1Cl (centres undefined)	102%[activator]	-18%
CCc1ccccc1NC(=O)c1ccc(=O)n(Cc2ccc(F)cc2)c1	?	-8%
Cc1cc(SCC(=O)NC(=O)NCC(C)C)nc2ccccc12	53%[activator]	19%
O=C(NCc1ccc(C(=O)N2CCCCC2)cc1)c1cc(=O)[nH]c2ccccc12	13%	10%
CC(C)c1ccc(S(=O)(=O)c2nnn3c2nc(N2CCC4(CC2)OCCO4)c2sccc23)cc1	4%	13%
CNc1cccc(Cl)c1Cl	6%	1%
Cc1ccc(Nc2ncnc3c2nc2n3CCCC2)c(Br)c1	-9%	0%
COC(=O)c1ccc(NC(=O)CSc2nc(=O)n(Cc3ccco3)c3c2CCC3)cc1	19%	1%
O=S(=O)(NCc1cccs1)c1ccc2ccccc2c1	3%	30%
CCCCOC(=O)c1ccccc1C(=O)OCc1ccccc1	101%[activator][114 µM]	-14%[22.9 µM]
CC1Sc2ccc(C(=O)Nc3nc(-c4ccc(Cl)cc4)cs3)cc2NC1=O (centres undefined)	-1%	0%
COCCN(Cc1ccc(C(C)C)cc1)Cc1cc(=O)n2c3c(sc2n1)CCCC3	4%	47%[activator]
COc1cc(OC)c2c(C)c(CC(=O)NCC3(N4CCN(C)CC4)CCCCC3)c(=O)oc2c1	-7%	-7%
CCCN1C(=O)C2(c3ccccc31)c1c(oc3ccc(C)cc3c1=O)C(=O)N2CCOC (centres undefined)	6%	-15%
COc1ccccc1-c1nnc(C2CCN(S(=O)(=O)c3ccc(CC(C)C)cc3)CC2)o1	65%[activator]	-15%

Looked up above.
StopGo RLuc, COc1ccc(-n2cnc3cc(C(=O)N4CCSCC4)ccc3c2=O)cc1Cl reads 10%
StopGo RLuc, CC1Sc2ccc(C(=O)Nc3nc(-c4ccc(Cl)cc4)cs3)cc2NC1=O (centres undefined) reads -1%
2A firefly, CCOc1ccccc1C(=O)Nc1cc(-c2nc3cccnc3s2)ccc1C reads -16%
2A firefly, Cc1ccc(C(=O)O)c(Cl)n1 reads -13%
StopGo RLuc, CC(=O)c1ccc(NC(=O)C(C)Nc2ccc3oc(C)nc3c2)cc1 (centres undefined) reads 11%
2A firefly, CCCCOC(=O)c1ccccc1C(=O)OCc1ccccc1 reads -14%[22.9 µM]

Following part.
SMILES	StopGo RLuc	2A firefly
Cc1ccc(-c2noc(Cn3cnc(C#N)n3)n2)cc1F	-14%	16%
CCN(Cc1ccccc1)C(=O)Cn1cnc2c1c(=O)n(C)c(=O)n2C	-5%	0%
Nc1nc(CN2CCN(C(=O)c3cccc(C(F)(F)F)c3)CC2)nc2ccccc12	-10%	-10%
Cc1cc(C)cc(NC(=O)c2cccs2)c1	23%	0%
Cc1nn(-c2ccccc2)c2c1cc1c(=O)n(C)c(=O)nc-1n2-c1cccc(Cl)c1	-8%	-19%
CCc1ccccc1NC(=O)CSc1nc2ccccc2nc1Cc1cccc(OC)c1	-6%	-21%
Cc1ccc(-c2nnn3c2nc(NC2CCC(C)CC2)c2ccccc23)cc1 (centres undefined)	-11%	85%[activator]
Cc1oc(-c2cccs2)nc1CC(=O)NCc1ccc2c(c1)OCO2	13%	0%
Cc1ccc(-c2nn(-c3ccc(F)cc3F)c3c2cnc2ccc(F)cc23)cc1	-11%	-13%
NC(=O)c1c(NC(=O)c2nn(-c3cccc(Cl)c3)ccc2=O)sc2c1CCCC2	4%	10%
CCN(CC)c1ccc(C2C3=C(CC(C)(C)CC3=O)Nc3cc4c(cc32)OCO4)cc1 (centres undefined)	-3%	-7%
COc1cc2c(cc1OC)C(c1ccc(Cl)cc1)N(c1ccc(C)c(F)c1)C(=O)C2 (centres undefined)	-10%	2%
C/C(=N\NC(=O)C1CCCCC1)c1ccc(C2CCCCC2)cc1	-10%	1%
O=C(CSc1nnc(Cc2ccccc2)o1)Nc1cc(Cl)cc(Cl)c1	27%	18%
COCCOCCCNC(=O)c1ccc2nc(C)c(C)nc2c1	3%	70%[activator]
CCOCCn1c(CN2CCN(C(=O)OCC)CC2)nc2c1c(=O)[nH]c(=O)n2C	5%	27%
Cc1cc(C)cc(NS(=O)(=O)c2cc3c(cc2C)NC(=O)CO3)c1	171%[activator]	0%
COc1ccc(-c2nc3c(c(SCC(=O)Nc4ccccc4)n2)COC(C)(C)C3)cc1	5%	7%
O=C(NCCc1ccc(F)cc1)c1ccccn1	7%	137%[activator]
COc1ccccc1C1=NCC(=O)N(CC(=O)Nc2ccccc2)c2sc3c(c21)CCCC3	24%	-25%
CCn1cc(C(=O)N2CCN(c3cc(C)ccc3C)CC2)c(=O)c2cc(S(=O)(=O)N(C)C3CCCCC3)ccc21	7%	-8%
Cc1ccc(-c2cnc(SCC(=O)Nc3ccccc3)o2)cc1C	9%	4%
Cn1c(-c2ccccc2)cn2cc(-c3cccc(Br)c3)nc12	31%[activator]	-98%

Reprinted at random: 3 entries already listed
SMILES	StopGo RLuc	2A firefly
Cn1c(-c2ccccc2)cn2cc(-c3cccc(Br)c3)nc12	31%[activator]	-98%
CCn1cc(C(=O)N2CCN(c3cc(C)ccc3C)CC2)c(=O)c2cc(S(=O)(=O)N(C)C3CCCCC3)ccc21	7%	-8%
COCCOCCCNC(=O)c1ccc2nc(C)c(C)nc2c1	3%	70%[activator]

Source: PubChem
